Screening results: PubChem, National Center for Advancing Translational Sciences (NCATS)
2A Renilla: lowers the Renilla signal of an FMDV 2A StopGo reporter; HEK cells with a luciferase reporter of 2A StopGo recoding; 0.32% of 120,000 active; Potency, µM (doses to about 57.5 µM), without a hit: at the highest dose signal change, negative = less light; AID 1745857; active means well fitted falling curve with a large enough effect; inconclusive means small, poorly fitted or top-dose-only effect; inactive means no such curve, though single readings can be large or run the other way; further: nearly all actives have a fitted effect of over 55% in size; overnight with compound
2A firefly: FMDV 2A StopGo reporter, firefly signal; HEK cells with a luciferase reporter of 2A StopGo recoding; Potency, µM (highest dose often 57.5 µM), without a hit: top-dose signal change, negative = less light; 0.23% of 120,000 active; AID 1745856; active = well fitted falling curve with a large enough effect; inconclusive = small, poorly fitted or top-dose-only effect; inactive = no such curve, though single readings can be large or run the other way; further: nearly all actives have a fitted effect of over 60% in size; overnight with compound
The depositor's hits bear a star; ? = inconclusive; [ ] = another dose, or the depositor's remark. On the % scale 0 is the no-effect control and ±100 the full control effect; potency means the concentration at half of the fitted maximal effect. Compounds were not picked by outcome (roughly 0.55% active in at least one column).

SMILES	2A Renilla	2A firefly
O=C(CC1N=C2c3ccccc3N=C(SCc3cccc(F)c3)N2C1=O)NCc1ccc2c(c1)OCO2 (stereo not drawn)	31%	179%[activator]
Cc1nc2cccnc2n1-c1cccc(C(=O)NCc2ccc(OC(C)C)cc2)c1	-28%	?
COc1ccc(C(C)(C)C)cc1NC(=O)COC(=O)c1ccc2c(c1)NC(=O)CS2	20%[1.06 µM]	?
COC(=O)c1cc(-c2ccc(C)cc2)nc2onc(-c3ccco3)c12	17%	128%[activator]
COc1cc2c(cc1NC(=O)COc1ccc(Cl)cc1)oc1ccccc12	-1%	-9%
Cc1ccc(S(=O)(=O)c2nc(-c3cccc(Cl)c3)oc2NCc2ccccc2)cc1	294%[activator]	18%
O=C(Nc1ccccc1-c1nc(Cc2ccccc2)no1)c1ccncc1	-5%	-6%
Cc1ccccc1C(=O)Nc1ccccc1C(=O)OCc1cc(=O)n2ccsc2n1	3%	37%[activator]
COc1ccc(N(CC(=O)N2CCN(c3cccc(Cl)c3)CC2)S(=O)(=O)c2c(C)noc2C)cc1	-2%	-6%
CCCCc1ccc(-c2ccccc2)nc1	-9%[1.06 µM]	139%[activator]
O=C(O)c1cc(-c2ccccc2)nc2c(Cl)cccc12	-7%	-4%
O=C(CSc1nc2cc([N+](=O)[O-])ccc2o1)Nc1cccc(Cl)c1	0%	0%
C[C@@H](C(=O)Nc1ccc(N(C)C)cc1)n1nnc2ccccc2c1=O	-3%	23%
COc1ccc2c(c1)cc1c(=O)n(CC(=O)NCCCOC(C)C)nc(C)n12	-16%	-2%
CC(=O)N1CCN(c2nc(-c3ccccc3)c3ccccc3n2)CC1	0%	-1%
CC(C)CC(=O)Nc1nc2c(s1)C(=O)CC(C)(C)C2	13%	116%[activator]
CCOc1ccc(C(CC(=O)Nc2ccc(C)cc2C)N2Cc3ccccc3C2=O)cc1OC (stereo not drawn)	249%[activator]	-1%
CCC(=O)N1c2ccc(S(=O)(=O)CCC(=O)NCc3ccccc3OC)cc2CC1C (stereo not drawn)	-5%	-7%
CC(=O)Nc1cccc(C(C)NC(=O)Nc2cccc(C(F)(F)F)c2)c1 (stereo not drawn)	5%	0%
CC(C)(C)OC(=O)NC1CCN(C(=O)CCCc2cccs2)CC1	3%	0%
Cc1ccc(C)c(-c2csc(-c3ccc(O)cc3)n2)c1	5%	157%[activator]
CCn1c(CC2C(=O)N(Cc3ccccc3)c3ccc(C)cc32)nc2ccccc2c1=O (stereo not drawn)	4%	-10%
CN(C)CCNCc1ccco1	-6%	-9%
Cc1ccc(NC(=O)CSc2nc(C)cc(C)c2C(=O)Nc2cccc(C)c2)cc1	-3%	-19%
Cc1ccc2nc(N3CCOCC3)nc(-c3ccccc3)c2c1	-12%	-8%
Cc1cc(-c2ccc(C)c(S(=O)(=O)NCCc3ccc(S(N)(=O)=O)cc3)c2)on1	218%[activator]	3%
COc1ccc(/C=C/c2nc(N)nc(-c3ccccc3O)n2)cc1OC	27%	0%
O=C(NCc1ccccc1)c1ccc(NC(=O)c2nsc3ccccc23)cc1	36%[activator]	-39%
N#Cc1nc(C2CC2)oc1N1CCN(Cc2ccccc2Cl)CC1	-8%	0%
CC(NC(=O)NCc1ccn[nH]1)c1ccc2c(c1)OCCO2 (stereo not drawn)	-2%	17%

16 entries already listed, sorted by count of non-hydrogen atoms, descending.
SMILES	2A Renilla	2A firefly
COc1ccc(N(CC(=O)N2CCN(c3cccc(Cl)c3)CC2)S(=O)(=O)c2c(C)noc2C)cc1	-2%	-6%
CCOc1ccc(C(CC(=O)Nc2ccc(C)cc2C)N2Cc3ccccc3C2=O)cc1OC (stereo not drawn)	249%[activator]	-1%
CCn1c(CC2C(=O)N(Cc3ccccc3)c3ccc(C)cc32)nc2ccccc2c1=O (stereo not drawn)	4%	-10%
CCC(=O)N1c2ccc(S(=O)(=O)CCC(=O)NCc3ccccc3OC)cc2CC1C (stereo not drawn)	-5%	-7%
Cc1ccc(NC(=O)CSc2nc(C)cc(C)c2C(=O)Nc2cccc(C)c2)cc1	-3%	-19%
Cc1cc(-c2ccc(C)c(S(=O)(=O)NCCc3ccc(S(N)(=O)=O)cc3)c2)on1	218%[activator]	3%
COc1ccc2c(c1)cc1c(=O)n(CC(=O)NCCCOC(C)C)nc(C)n12	-16%	-2%
COc1ccc(/C=C/c2nc(N)nc(-c3ccccc3O)n2)cc1OC	27%	0%
CC(=O)N1CCN(c2nc(-c3ccccc3)c3ccccc3n2)CC1	0%	-1%
CC(C)(C)OC(=O)NC1CCN(C(=O)CCCc2cccs2)CC1	3%	0%
Cc1ccc2nc(N3CCOCC3)nc(-c3ccccc3)c2c1	-12%	-8%
CC(NC(=O)NCc1ccn[nH]1)c1ccc2c(c1)OCCO2 (stereo not drawn)	-2%	17%
Cc1ccc(C)c(-c2csc(-c3ccc(O)cc3)n2)c1	5%	157%[activator]
CC(C)CC(=O)Nc1nc2c(s1)C(=O)CC(C)(C)C2	13%	116%[activator]
CCCCc1ccc(-c2ccccc2)nc1	-9%[1.06 µM]	139%[activator]
CN(C)CCNCc1ccco1	-6%	-9%

(more compounds)
SMILES	2A Renilla	2A firefly
O=c1[nH]nc(SCc2nc(-c3ccccc3)no2)n2nc(-c3ccco3)cc12	-4%	6%
Cc1onc(-c2c(F)cccc2Cl)c1C(=O)Nc1sc(C)c(-c2ccccc2)c1C(N)=O	?	-21%
CC(=O)Oc1c(Cl)cc(Cl)cc1Sc1cc(Cl)cc(Cl)c1OC(C)=O	?	?
COc1ccc(-n2cnc3cc(C(=O)NC4CCCCCC4)ccc32)cc1	96%[activator]	20%
CC(C)(C)NC(=O)CN1CCN(C(=O)c2cc3cc(F)ccc3[nH]2)CC1	-9%	11%
NC(CCCc1ccccc1)c1ccccc1 (stereo not drawn)	11%	29%
CCc1ccc(NC(=O)C2CCCN(S(=O)(=O)c3cccc4nsnc34)C2)cc1 (stereo not drawn)	-4%	-30%
COc1cccc(NC(=O)c2sc3ncnc(N(C)c4ccccc4)c3c2C)c1	-27%	-23%
CC1=C(C(=O)c2ccccc2)C2(C(=O)Nc3ccc(Br)cc32)C(C(=O)OCc2ccccc2)=C(N)O1 (stereo not drawn)	28%[1.06 µM]	0%
Cc1ccc(S(=O)(=O)N2CCN(CCNC(=O)c3ccccc3)CC2)cc1	27%	11%
CCCCN1C(=O)CN(C2CCCCCC2)C(=O)C1c1ccc(OCCC)c(OC)c1 (stereo not drawn)	-7%	-16%
O=C(COc1ccc(Cl)cc1)NCCc1nnc2ccccn12	-6%	16%
COc1ccc(N2CCN(S(=O)(=O)CCNC(=O)c3c(F)cccc3Cl)CC2)cc1	2%	3%
CCc1ccc(CNC(=O)c2sc3nc[nH]c(=O)c3c2C)cc1	34%[activator]	34%[activator]
COc1nccnc1NS(=O)(=O)c1ccc(N)cc1	9%	18%[11.5 µM]
CCN(CC)CC1CCN(C(=O)CCc2c[nH]c3ccccc23)CC1	9%	23%
CCOC(=O)c1ccc(NS(=O)(=O)c2cc3c(cc2C)n(C)c(=O)c(=O)n3C)cc1	-6%	2%
CN(C)C(=O)c1ccc(Cl)cc1NS(=O)(=O)c1cc(F)ccc1F	48%[activator]	4%
O=C(NCc1ccc(Cn2cncn2)cc1)c1ccccc1F	-8%	15%
COC(=O)Cn1nc(-c2ccc(C)cc2)c2ccccc2c1=O	3%	8%
O=C(Nc1ccc(F)cc1F)c1ccc2c(c1)CCN2S(=O)(=O)c1ccc(Cl)cc1	-3%	-1%
Cc1cccc(C)c1NC(=O)CSCc1cc(=O)n2ccsc2n1	3%	15%
Cc1ccc(-n2ncc3c(NCCCN4CCOCC4)ncnc32)cc1Cl	4%	-23%
Cc1ccc(CNc2nc3ccccc3c3nc(-c4cccc(C)c4)nn23)cc1	-7%	115%[activator]
CC1CCC(NC(=O)Cn2ncc3c4ccccc4n(Cc4ccc(Cl)cc4)c3c2=O)CC1 (stereo not drawn)	-10%	19%
COc1cccc(CNC(=O)c2cc(=O)[nH]c3ccc(S(=O)(=O)N4CCCC4)cc23)c1	0%	-11%
Cc1ccc(S(=O)(=O)NCCc2csc3nc(-c4ccccc4C)nn23)cc1	0%	10%
Cn1nc(-c2ccc(N3CCOCC3)c(NC(=O)c3ccc(Cl)cc3)c2)c2ccccc2c1=O	-8%	-7%
Cc1ccc(CNc2nc3ccccc3nc2NS(=O)(=O)c2cccs2)cc1	6%	-11%
CCc1ccccc1NC(=O)CSc1nc2ccccc2nc1C	?	?
Cc1ccccc1-c1ccc2cccc(C)c2n1	6%	12%
Cc1ccc(-c2ccc(O)c(C)c2)cc1	10%	178%[activator]
O=C(O)c1ccc(F)c(Br)c1	16%	16%
COC(=O)COc1ccc2oc(C)c(C(=O)OC(C)C)c2c1	-4%	2%
CN(C(=O)c1ccc2c(Cl)c3c(nc2c1)CCC3)c1ccccc1F	-2%	197%[activator]
Cc1ccc(NC(=O)Cn2nc(C)n3cccc3c2=O)c(C)c1	-11%	-19%
CCOC(=O)c1ccc(NC(=O)Nc2ccc3snnc3c2)cc1	-5%	12%
COCCNC(=O)Cn1c(=O)n(-c2ccc(C)c(C)c2)c(=O)c2c3c(sc21)CCCCC3	-7%	-13%
Cc1ccc2sc(N(Cc3cccnc3)C(=O)Cc3ccccc3)nc2c1C	-4%	-1%
COc1cc(C(=O)/C=C/c2ccccc2F)ccc1S(C)(=O)=O	38%[activator]	18%
COc1ccccc1NC(=O)C1=C(C)Nc2nc(SCc3ccccc3)nn2C1c1cccnc1 (stereo not drawn)	-10%	-19%
Clc1ccc2[nH]c3c(c2c1)CCCC3	?	6%
COc1cccc(N2CCN(c3ncnc4onc(-c5ccc(F)cc5)c34)CC2)c1	-4%	-10%
CC(=O)Nc1ccc(N(C(=O)Cn2nnc3ccccc32)C(C(=O)NCc2ccccc2)c2ccc(C)cc2)cc1 (stereo not drawn)	16%	-17%
O=C(Oc1ccc(OCc2ccccc2)cc1)c1ccc(F)cc1Cl	15%	132%[activator]

Complete entries as entered above. Order of screens: 2A Renilla | 2A firefly
`CN(C(=O)c1ccc2c(Cl)c3c(nc2c1)CCC3)c1ccccc1F` is entered as -2% | 197%[activator]
`Cc1ccccc1-c1ccc2cccc(C)c2n1` is entered as 6% | 12%
`CCOC(=O)c1ccc(NC(=O)Nc2ccc3snnc3c2)cc1` is entered as -5% | 12%
`COc1ccccc1NC(=O)C1=C(C)Nc2nc(SCc3ccccc3)nn2C1c1cccnc1` (stereo not drawn) is entered as -10% | -19%

Next entries
SMILES	2A Renilla	2A firefly
CCOC(=O)c1ccccc1NC(=O)NCc1c(-n2cccc2)sc2c1CCN(C)C2	-16%	-2%
COc1ccc(-c2[nH]c(-c3cccc(OC)c3)nc2SCC(=O)NC2CCCC2)cc1	107%[activator]	29%
CN1CCN(CC(C#N)C(O)c2ccncc2)CC1 (stereo not drawn)	6%	0%
CCCC/C=C1/[C@@H](c2ccc(Cl)cc2)N(Cc2ccc3c(c2)OCO3)C2=N[C@@H](c3ccccc3)CC(=O)N21	-1%	-6%
CCCN(CCC)S(=O)(=O)c1ccc(C(=O)Nc2c(C)n(C)n(-c3ccccc3)c2=O)cc1	-11%	16%
N#Cc1ccccc1-c1ccc(C=O)o1	8%	36%[activator]
CCSc1ncc(Cl)c(C(=O)Nc2ccc(S(=O)(=O)N3CCCCC3C)cc2)n1 (stereo not drawn)	110%[activator]	-3%
CC(C)n1nnnc1SCC(=O)N(Cc1cccs1)c1ccc2c(c1)OCCO2	9%	-7%
CCCCNC(=O)N1CCN(C(=O)Cc2c[nH]c3ccccc23)CC1	-3%	-9%
COc1ccc(S(=O)(=O)N2CCCCC2)cc1C(=O)Nc1cccc(C(F)(F)F)c1	-14%	-18%
CC(c1ccccc1)C(CC(=O)O)C(=O)O (stereo not drawn)	0%	0%
COc1ccc(CNCc2cccs2)c(OC)c1	7%	12%
Cc1ccc(NC(=O)c2ncoc2-c2cccs2)cc1F	0%	15%
CCCCNC(=O)NC(=O)CSc1nc(-c2ccco2)nc2ccccc12	-6%	25%
